Beta apoptosis = inhibitors of cytokine-induced beta cell apoptosis, primary screen, luminescence. AID 435005, 2010. protection from apoptosis, % (test concentration not listed). hit rate 0.8% among 300,000. INS-1E cytokine-induced death, ATP luminescence, 48 h; percent of positive-control rescue, neutral wells zero;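 active means all replicates at 75% or more, or half of them and the mean; inconclusive means half reach 75% but not the mean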;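 further: 0% = cytokine-treated negative control wells and 100% = positive control rescue; higher means more ATP so stronger rescue from cytokine killing; wells of about 40 µL received 100 nL stock; the first replicate is given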
Bfl-1 A1 inh = caspase 3/7 activation in MEF A1-2A-BIM cells, primary screen, A1 inhibitor project, cell-based, luminescence, HTS. Caspase-Glo 3/7 luminescence, 3 h; percent of clofoctol response, vehicle zero. caspase activation, % (test concentration not listed). hit rate 0.066% among 330,000;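 active means over half of replicate activation scores above 10%, or exactly half above 10 with the replicate mean above 10; inconclusive means replicate mean below 10 yet half the replicates above 10; inactive means over half of replicates below 10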;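 further: wells of about 30 µL received 50 nL stock; many hits fall short of the cut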
T cruzi inh = inhibitors of intracellular T. cruzi growth, primary screen, luminescence, NIH3T3 host cells | T. cruzi beta-gal in NIH3T3, 90 h | inhibition, % (no concentration beside the values) | hit rate 1.4% among 300,000;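 active means mean inhibition across valid replicates above about 55%, limit read from the data; inconclusive means mean below that limit but half or more replicates reach it; inactive means mean below it, under half of replicates reach it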;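 further: signal also drops with host cell toxicity which is not excluded here; 0% = plate median of DMSO wells and 100% = zero luminescence signal; higher percent means less beta-gal luminescence so fewer parasites; stock transfer was 50 nL into about 50 µL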
LANA-H2A inh = blockers of LANA interaction with H2A/H2B – biochemical, FP readout, HTS, primary screen. hit rate 0.6% among 320,000. cell-free LANA-H2A/H2B peptide, fluorescence polarization. inhibition, % (concentration not given with the values). Protein LANA1 (Human herpesvirus 8 type P (isolate GK18)), Q9QR71; in the data active means inhibition mostly above about 10%, no sharp cut-off; inactive means mostly below about 6.7%;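 further: stock transfer was 7.5 nL into about 10 µL; 0% = median of vehicle wells and 100% = median of positive control wells; one replicate is shown; the record names a cut of 25% in any replicate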
Target sequence (Q9QR71 whole entry, looked up): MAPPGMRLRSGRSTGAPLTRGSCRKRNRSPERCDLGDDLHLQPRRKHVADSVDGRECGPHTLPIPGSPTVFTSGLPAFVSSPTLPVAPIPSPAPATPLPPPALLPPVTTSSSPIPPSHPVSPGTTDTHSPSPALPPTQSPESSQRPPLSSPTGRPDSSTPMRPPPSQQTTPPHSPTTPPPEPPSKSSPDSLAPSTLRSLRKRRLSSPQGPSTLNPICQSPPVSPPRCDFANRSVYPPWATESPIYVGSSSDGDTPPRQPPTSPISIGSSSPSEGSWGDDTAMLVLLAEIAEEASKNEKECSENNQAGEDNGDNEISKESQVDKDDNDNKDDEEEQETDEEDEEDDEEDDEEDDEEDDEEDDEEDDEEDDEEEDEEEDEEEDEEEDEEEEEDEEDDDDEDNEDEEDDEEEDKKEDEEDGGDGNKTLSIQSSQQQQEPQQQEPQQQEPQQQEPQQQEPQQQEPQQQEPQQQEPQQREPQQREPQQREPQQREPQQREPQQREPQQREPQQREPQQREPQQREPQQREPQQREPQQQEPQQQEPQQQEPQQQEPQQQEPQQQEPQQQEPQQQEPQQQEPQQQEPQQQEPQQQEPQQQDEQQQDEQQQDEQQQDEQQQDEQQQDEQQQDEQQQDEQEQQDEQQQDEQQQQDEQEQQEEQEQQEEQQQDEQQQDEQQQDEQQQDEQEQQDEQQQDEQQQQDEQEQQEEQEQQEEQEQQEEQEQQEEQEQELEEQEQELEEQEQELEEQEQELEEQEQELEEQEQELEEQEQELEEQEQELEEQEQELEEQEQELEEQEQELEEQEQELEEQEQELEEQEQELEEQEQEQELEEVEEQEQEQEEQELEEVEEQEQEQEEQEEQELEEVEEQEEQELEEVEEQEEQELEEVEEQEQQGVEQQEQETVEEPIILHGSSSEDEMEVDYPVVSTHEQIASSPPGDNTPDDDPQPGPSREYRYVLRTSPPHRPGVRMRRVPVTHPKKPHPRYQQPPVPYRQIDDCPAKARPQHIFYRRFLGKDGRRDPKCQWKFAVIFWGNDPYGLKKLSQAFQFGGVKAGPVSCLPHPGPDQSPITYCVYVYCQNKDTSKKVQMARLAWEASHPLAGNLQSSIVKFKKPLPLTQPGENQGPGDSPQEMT
Calb FLC = C. albicans growth inhibition with fluconazole, primary screen, CaCi-2 strain, Alamar Blue fluorescence. C. albicans CaCi-2 (fluconazole-resistant clinical isolate) + fluconazole, 48 h. growth inhibition, % (concentration not given with the values). hit rate 0.57% among 300,000. AID 1979, 2009;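 active means most replicates above 75%; inconclusive means exactly half above 75%; inactive means most below 75%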;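 further: all wells also contain fluconazole at 8 µg/ml as a sub-toxic cotreatment; 0% = median of DMSO wells and 100% = median of geldanamycin control wells; wells of about 8 µL received 7.5 nL stock; the first replicate is given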
MLL AF4-AF9 inh = inhibitors of AF4 peptide binding to AF9, primary screen, biochemical, AlphaScreen, biotin-AF4 peptide, FLAG-AF9, single point | inhibition, % at 10 µM | hit rate 0.47% among 350,000;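 active means every replicate reaching a set inhibition limit, whatever the replicate mean, cut at about 25% in these data; inconclusive means mean inhibition reaches that limit but some replicates miss it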;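 further: 0% = plate neutral control median and 100% = total signal loss; the record names both 10 and 1 µM as test concentration; the first replicate is given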
RanGTP-Imp inh = inhibitors of RanGTP-importin-beta interaction, primary screen, biochemical, FRET, CFP-Ran, YFP-importin-beta, homogeneous; Ran GTPase (GTP-bound) - importin-beta complex; inhibition, % (concentration not given with the values); hit rate 1.1% among 300,000; cell-free CFP-Ran/YFP-importin-beta FRET ratio;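 active means most replicates above 15%; inconclusive means exactly half above 15%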;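 further: 0% = DMSO wells and 100% = Ran loaded with GDP instead of GTP; wells of about 40 µL received 100 nL stock; the first replicate is given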
Vif A3G = inhibitors of Vif binding to APOBEC3G peptide, primary screen, biochemical, TR-FRET, GST-Vif 1-94, biotin-A3G peptide, dose response retest (AID 1117319); TR-FRET GST-Vif / biotin-A3G peptide binding; higher % means a stronger effect; test concentration not given here; strong numbers were not always called active; inhibition, %, or IC50 in µM where a hit was titrated; hit rate 0.57% among 260,000;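 active means above the screen mean plus three standard deviations and confirmed in dose response; inconclusive means results disagree or hit not tested in dose response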;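 further: Vif residues 1-94 fused to GST binding biotinylated APOBEC3G peptide 110-148; 0% = full assay without inhibitor and 100% = GST in place of GST-Vif; retest series ran down from 100 µM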
An asterisk follows results filed as active; ? = inconclusive; · = not tested or not shown; & = joins results of further samples.

Molecule	Calb FLC	Beta apoptosis	T cruzi inh	RanGTP-Imp inh	Bfl-1 A1 inh	LANA-H2A inh	Vif A3G	MLL AF4-AF9 inh
Cc1ccc(NC(=O)N2CCCC(c3nc(-c4ccc(F)cc4)no3)C2)cc1 (stereo not drawn)	-7	4	5	-5.4	0.2	-1.4	7%	-60
CCOc1ccc(CN(CC)C(=O)c2ccc3c(c2)[nH]c(=O)c(=O)n3CC)cc1OC	-6	-5	0	-5.1	0.5	-0.4	·	1.3
COc1ccc(C(=O)NCCCN2CCOCC2)cc1	-3	-3	-23	-0.3	0.5	-10	·	-3.0
O=C(N/N=C/c1cccc([N+](=O)[O-])c1)C(=O)N1CCCCCC1	-9	·	-12	-0.2	1.2	-9.7	4%	-0.8
FC(F)(F)c1cccc(-c2nc3nc(Cl)c(Cl)nc3[nH]2)c1	28	99*	-2	43*	-11	-2.0	-3%	·
Cc1ccc(NC(=O)OCCN2CCN(Cc3ccccc3)CCC2=O)cc1C	28	-1	15	-0.2	-0.8	-4.0	6%	-0.9
Cn1cc(C(=O)c2ccc(Cl)cc2Cl)cc1C(=O)N/N=C(\N)COc1ccccc1	-3	8	4	-3.4	2.3	-2.0	?	·
C/C(=N\NC(=O)c1nnn(-c2nonc2N)c1CSc1ccc(Cl)cc1)c1ccco1	·	-2	3	1.0	0.0	-4.1	·	-1.8
NC(=O)c1ccc(Nc2ccc3nonc3c2[N+](=O)[O-])cc1	4	·	4	-2.3	-0.4	-0.8	·	-3.9
CC(C)n1c(SCC(=O)N2CCCC2)nc2c1c(=O)n(C)c(=O)n2C	2	-4	-15	-4.2	0.3	-7.9	6%	·
COc1ccc(C(=O)CSc2nnc(CNC(=O)c3ccco3)n2C)cc1	0	-19	-8	0.0	-0.7	-2.5	8%	1.5
CN1CCc2c(sc3c2C(=O)NC(c2ccc(-c4cccc(Cl)c4)o2)N3)C1 (stereo not drawn)	-1	-1	-4	103*	-0.1	-20	·	·
CCC(=O)N/C(=N\OCc1ccc(F)cc1)c1nonc1NC(=O)CC	-8	-4	-10	3.9	0.6	3.8	?	·
CC(C)=CCN1CCN(Cc2cnc(-c3ccccc3)s2)CC1CCO (stereo not drawn)	-17	0	33	1.8	-0.6	1.0	-5%	-3.8
Cc1cc(C)c(S(=O)(=O)N2CCN(C(=O)C3COc4ccccc4O3)CC2)c(C)c1 (stereo not drawn)	·	1	·	·	-0.7	5.5	·	1.1
Cc1ccc(NC(=O)COC(=O)CCNS(=O)(=O)c2c(Cl)cccc2Cl)cc1	·	-3	·	·	1.3	-1.0	4%	2.5
COc1ccc(NC(=O)CN(C)C(=O)c2cn(-c3ccccc3)nc2-c2ccc(Cl)cc2)cc1	13	·	20	3.6	0.0	-3.8	1%	1.1
COCCN1C(=O)N(c2cccc(OC)c2)C(=O)C1CC(=O)Nc1ccc(Cl)cc1 (stereo not drawn)	1	0	-6	6.3	1.5	0.1	·	1.0
O=C(COc1ccc(S(=O)(=O)Nc2ccc(Cl)cc2)cc1)N1CCOCC1	2	·	-1	1.0	0.3	-5.8	7%	2.0
Cc1oc(-c2ccc(Cl)cc2)nc1CN1CCC(C(=O)N2CCN(Cc3ccccc3)CC2)CC1	4	11	-27	-0.4	-0.4	0.4	-3%	5.0
Cc1[nH]c2ccccc2c1-c1csc(N)n1	1	2	-5	2.1	1.3	-2.3	·	3.8
COc1ccc(CCNC(=O)CS(=O)(=O)Cc2nc(-c3ccccc3Cl)oc2C)cc1OC	2	-2	2	4.0	0.8	3.3	·	2.9
Cc1cc(C)c2nc(NC(=O)c3ccc([N+](=O)[O-])o3)sc2c1	1	·	36	3.9	-0.3	3.6	-9%	-8.1
CCCNC(=S)NCCN1CCCCC1	-11	-3	4	-1.8	0.0	-2.3	-1%	·
CCc1ccc(C(=O)CCC(=O)Nc2ccc(OC)c(S(=O)(=O)N3CCCCC3)c2)cc1	·	-3	·	·	-0.5	7.6	8%	-1.3

(next part)
Molecule	Calb FLC	Beta apoptosis	T cruzi inh	RanGTP-Imp inh	Bfl-1 A1 inh	LANA-H2A inh	Vif A3G	MLL AF4-AF9 inh
COc1ccccc1-c1nnc(NC(=O)c2cccc(N3C(=O)CCC3=O)c2)o1	-1	2	-11	-4.5	-0.3	5.1	-1%	3.5
COc1ccc(NC(=O)c2ccc(NCCCN3CCOCC3)c([N+](=O)[O-])c2)cc1	2	-4	-2	-3.1	-0.3	5.3	·	-4.0
Cc1ccc(Cl)c2sc(NC(=O)C3=COCCO3)nc12	3	·	9	4.8	-1.0	-0.3	0%	-1.1
O=C(NCCCNC(=O)c1ccccc1Br)c1ccccc1Br	8	0	-11	0.3	-0.1	1.7	·	4.1
CCOc1ccc(C(CC(=O)O)NS(=O)(=O)c2ccc(C)cc2)cc1OC (stereo not drawn)	·	3	-19	1.6	-0.5	-5.6	-2%	·
COc1ccc(CN(C(=O)c2cccc(OC)c2)C2CCS(=O)(=O)C2)cc1 (stereo not drawn)	-9	-2	-11	5.7	-1.0	-6.8	7%	-0.8
CCNc1nc(NCC)n2c(SCC(=O)Nc3cccc(Cl)c3)nnc2n1	1	-1	6	2.6	-0.2	-15	21%	·
O=C1COc2ccc(S(=O)(=O)N3CCc4ccccc43)cc2N1	-8	-3	2	3.8	0.7	-1.4	-2%	3.1
O=C(NNC(=O)c1ccccc1Br)c1ccncc1	-1	-2	-5	-0.9	-0.1	-1.5	1%	4.9
COc1cc(C(=O)COC(=O)c2ccco2)cc(OC)c1OC	·	-5	·	·	-0.4	-1.0	-1%	-6.5
CCOC(=O)c1sc(NC(=O)c2cc(S(=O)(=O)N3CCOCC3)ccc2C)nc1C	-3	2	-1	-3.0	-0.8	-8.3	-8%	·
COc1ccccc1N(CC(=O)NCC1CCCO1)C(=O)Cn1nnc(-c2cccs2)n1 (stereo not drawn)	-8	·	-16	-3.9	-0.5	5.3	13%	-0.1
COc1ccc(/C=C/C(=O)OCC(=O)Nc2ccc3c(c2)OCO3)cc1	·	-6	·	·	0.4	4.8	-14%	0.4
CN(C)S(=O)(=O)c1cccc(NC(=O)COC(=O)/C=C/c2ccco2)c1	-11	2	-14	-0.8	0.4	-0.3	26%	·
COc1ccc(OC)c2c1sc(=NC(=O)c1cccc(N3C(=O)CCC3=O)c1)n2C	-2	0	38	-0.9	-0.9	-1.9	-58%	-0.7
COc1cccc(-c2nc(N)nc(SC)c2C#N)c1	-11	-12	-6	-4.8	1.7	-3.8	-1%	·
Cc1cccc(C(=O)NC(C(=O)Nc2cccc(S(=O)(=O)N3CCCC3)c2)C(C)C)c1 (stereo not drawn)	·	-5	·	·	0.9	·	-1%	1.0
CCO[C@H]1OC(C(=O)O)=C[C@@H](c2ccc3c(c2)OCO3)[C@@H]1CCCO	3	-9	-9	8.6	0.5	-0.6	17%	-1.6&-4.0
CCOc1ccc(NC(=O)c2ccc(NC(=O)C3CCCO3)cc2)cc1 (stereo not drawn)	13	4	-16	6.9	0.2	3.2	-4%	2.0
Cc1ccccc1NC(=O)NC1CCS(=O)(=O)C1 (stereo not drawn)	0	2	8	1.9	-0.2	2.0	·	-1.8
COc1ccccc1NC(=O)c1ccccc1C(=O)Nc1ccccc1OC	-4	-4	-1	0.6	0.5	2.8	·	0.5
Nc1nc(CSCc2ccccc2)nc(N2CCOCC2)n1	24	-2	-5	-0.1	0.8	-0.1	-6%	·
COCCCn1c(SCC(=O)N2CCc3ccccc32)nnc1-c1ccoc1C	3	2	-10	-1.2	0.8	-1.0	·	·
CC1CCc2sc(C(=O)NC3CCCCC3)cc2C1 (stereo not drawn)	·	7	·	·	-1.5	-0.6	-10%	0.0
COC(=O)c1ccc(C23CC4(C2)[C@H](CN(Cc2ccc(C(F)(F)F)cc2)[C@@H]4c2ccccc2)C3c2ccc(Cl)nc2)cc1 (stereo partly drawn)	-24	4	11	4.4	-1.4	3.5	-5%	2.6

Going on with the list:
Molecule	Calb FLC	Beta apoptosis	T cruzi inh	RanGTP-Imp inh	Bfl-1 A1 inh	LANA-H2A inh	Vif A3G	MLL AF4-AF9 inh
CCCN(C(=O)c1cc(S(=O)(=O)N2CCCCCC2)ccc1OC)C1CCS(=O)(=O)C1 (stereo not drawn)	5	3	4	-1.0	0.2	0.8	-9%	-1.4
Cc1nnc(-c2ccco2)c2cn(-c3cccc(Br)c3)nc12	6	-3	37	?	1.2	0.1	1%	1.9
CC1(C)Cc2c(c(N3CCOCC3)nc3sc4c(NCC5CCCO5)nnnc4c23)CS1 (stereo not drawn)	0	-3	4	4.2	0.1	1.1	·	26*
O=C(NCCN1CCN(c2ccccc2)CC1)c1cccn2c(=O)c3ccccc3nc12	-2	16	17	2.3	-0.9	2.6	·	·
CCOc1ccc2oc(C(=O)Nc3nccs3)c(C)c2c1	·	29	·	·	-12	4.1	·	-2.4
Cc1ccc(S(=O)(=O)CCC(=O)NCc2ccccc2Cl)cc1	5	1	14	1.1	-0.4	3.5	·	-0.7

A different layout for 2 compounds above.
Order of values: Calb FLC	Beta apoptosis	T cruzi inh	RanGTP-Imp inh	Bfl-1 A1 inh	LANA-H2A inh	Vif A3G	MLL AF4-AF9 inh
O=C(NCCN1CCN(c2ccccc2)CC1)c1cccn2c(=O)c3ccccc3nc12
→ -2	16	17	2.3	-0.9	2.6	·	·
CCCN(C(=O)c1cc(S(=O)(=O)N2CCCCCC2)ccc1OC)C1CCS(=O)(=O)C1 (stereo not drawn)
→ 5	3	4	-1.0	0.2	0.8	-9%	-1.4

High-throughput results from PubChem.
